NPYLR7 ag: agonists of mosquito NPYLR7 receptor, primary screen, cell-based, Aedes aegypti, calcium fluorescence, mosquito biting behavior | actives 0.15% (n = 270,000) | HEK293T NPYLR7/Galpha15, GCaMP6s calcium fluorescence | activation, % at 10 µM; in the data active = activation above about 40%;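 also: 0% = vehicle and 100% = reference agonist at the receptor; some compounds past the cut are filed as inactive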
NPYLR7 ag max-min: also measured in NPYLR7 ag; calls as there; activation, %; measured here: Max-Min RFU normalised activation; some inactives read as strong as hits;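 span of the calcium signal over five minutes; 0% = vehicle and 100% = native peptide agonist; compound fluorescence can raise it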
* hit, by the source's call; & = joins results of further samples. This is a subset; count on the stated rates, not on these rows.

SMILES	NPYLR7 ag	NPYLR7 ag max-min
CCn1c(=NC(=O)CCS(=O)(=O)c2ccccc2)sc2cccc(OC)c21	11	6
COc1ccc(C(=O)NCCCNC(=O)[C@H]2CCCN2C(=O)c2cc(OC)c(OC)c(OC)c2)cc1	23	27
CC(C)N(C(=O)Cn1cc(SCC(=O)Nc2ccccc2)c2ccccc21)C(C)C	-7	-12
CC(C)SC(NC(=O)OCc1ccccc1)C(=O)Nc1nccs1 (stereo not given)	-6	-12
O=C(CCc1ccccc1)N1CCC(n2c(C(F)(F)F)nc3ccccc32)CC1	4	1
CC(C)c1cccc(C(C)C)c1NC(=O)N(Cc1ccc(OS(=O)(=O)c2ccc(F)cc2)cc1)Cc1ccco1	-8	2
Cc1cc(N2CCCC2)ccc1NC(=O)COc1ccc(F)cc1	2	1
Cc1cc2c(cc1Cl)N(C(=O)Nc1ccnc3ccccc13)CC2	2	-20
Cn1cc(C2=C(c3cn(CCCSC(=N)N)c4ccccc34)C(=O)NC2=O)c2ccccc21	11	5
c1cc(CN(Cc2ccoc2)C2CCCCC2)on1	5	4
COCCNC(=O)CCN1C(=O)C(C)SC1c1ccccc1C (stereo not given)	-3	8
CCCNC(=O)c1ccc(S(=O)(=O)N2CCCC2)cc1	-2	1
c1ccc2c(c1)CCCN2CCCn1cnnc1	5	0
Cc1ccccc1C(NC(=O)C1CCN(CCc2ccc3c(c2)OCO3)CC1)c1cnccn1 (stereo not given)	9	-1
Clc1ccc(C(Cn2ccnc2)OCc2c(Cl)cccc2Cl)c(Cl)c1 (stereo not given)	-2	-4
CCOc1ccc(Nc2oc(-c3ccc(OC)cc3)nc2C#N)cc1	1	7
CCOc1ccc(-n2c(C(CC)N(CCc3ccccc3)C(=O)Nc3cccc(F)c3)nc3ccccc3c2=O)cc1 (stereo not given)	-4	1
COc1cccc(-c2cc(C(=O)N3CCN(Cc4ccccc4)CC3)n3nc(-c4ccccc4)cc3n2)c1	-7	2
Cc1cccc(-n2nc3c(c2NC(=O)c2ccc(OC(C)C)cc2)CS(=O)C3)c1C (stereo not given)	0	-2
CCN(CC)S(=O)(=O)c1cc(C)c(C)c(NS(=O)(=O)c2ccc3c(c2)OCCO3)c1	1	32
c1ccc(-c2cccc(CN3CCC(OCc4cccnc4)CC3)c2)nc1	6	0
O=C1OC(Nc2nc3ccccc3s2)c2ccccc21 (stereo not given)	19	10
COCC(C)NC(=O)C1CCN(C(=O)CCn2c(C)cc(C)nc2=O)CC1 (stereo not given)	-3	-7
CC(O)c1ccc(N(C)C)c2c(N(C)C)cccc12 (stereo not given)	-1&7	-7&5
Cn1cc(C2Nc3ccccc3C(=O)N2c2ccc(Cl)cc2)c(=O)n(C)c1=O (stereo not given)	0	-2
O=C(c1ccc(Br)o1)N1CCN(c2ncnc3c2nnn3-c2ccccc2)CC1	-8	-14
CCC1(c2ncc[nH]2)Cc2ccccc2O1 (stereo not given)	0	-9
CC1CCc2nc(NC(=O)Cc3c(F)cccc3Cl)sc2C1 (stereo not given)	-6	-9
CCCOc1ccc(OCCSc2nc3ccccc3[nH]2)cc1	-1	-6
O=C(CSc1nc2[nH]ncc2c(=O)[nH]1)Nc1cc(C(F)(F)F)ccc1Cl	-21	-16

Complete entries as entered above.
Profile of `CCCOc1ccc(OCCSc2nc3ccccc3[nH]2)cc1` : NPYLR7 ag: -1; NPYLR7 ag max-min: -6
Profile of `c1ccc(-c2cccc(CN3CCC(OCc4cccnc4)CC3)c2)nc1` : NPYLR7 ag: 6; NPYLR7 ag max-min: 0

Next entries follow.
SMILES	NPYLR7 ag	NPYLR7 ag max-min
COc1cc(C=C2SC(=S)N(CC(=O)O)C2=O)cc(OC)c1OC(C)=O	-14	-14
CC1(C)CC2CC(C)(CN2C2=Nc3cccc4cccc2c34)C1 (stereo not given)	30&15	15&13
O=C(N/N=C\c1ccccn1)c1cc(-c2ccc3c4c(cccc24)CC3)n[nH]1	2	-4
COC(=O)C1CCCCN1Cc1cccc(C(=O)Nc2c(C)noc2C)c1 (stereo not given)	1	32
Cc1ccc(-n2ncc3c(C)nn(Cc4ccccc4F)c(=O)c32)c(C)c1	-3	-4
CC(=O)N1CCN(c2cc(-c3ccccc3)nc(SCc3cccc(C(=O)NCC4CCCO4)c3)n2)CC1 (stereo not given)	9	6
CC(C)n1nccc1NC(=O)COc1ccccc1C#N	-2	-2
CCn1c(C)c(C(=O)CN(Cc2ccco2)C(=O)COc2ccccc2)c(C)c1C(=O)OC	-13	-13
Cc1cc(CSc2nnc(NC3CC3)s2)no1	-1	-3
CN1CCCC2(CCN(Cc3ccc(C#CC(C)(C)O)s3)C2)C1=O (stereo not given)	4	2
O=C(NCCN1CCOCC1)[C@@]1(OCc2ccc(F)cc2)CC(OCc2cccc(Cl)c2)[C@H](O)[C@H](O)C1 (stereo not given in full)	36	27
C[C@@]12CO[C@H](c3ccccc3)C[C@@H]1C[C@H](N1CCN(C3CCN(C(=O)c4ccccc4)CC3)CC1)C2	5	18
Cc1cc(NC(=O)c2cc(S(=O)(=O)N(C)C)ccc2C)n(C2CCS(=O)(=O)C2)n1 (stereo not given)	8	1
Cn1/c(=N\N=C2CCCc3ccccc32)sc2ccccc21	-3	-4
CC(/C=N\N1C(=O)c2ccccc2C1=O)=C\c1ccc(C(C)C)cc1	2	-1
CCCCn1cc(S(=O)(=O)c2ccc(OC)cc2)c(=O)c2cc(F)c(N3CCCCC3)cc21	-8	-9
CCn1cc(NC(=O)c2cc(Cl)ccc2OC(F)F)ccc1=O	8	5
O=[N+]([O-])c1ccc(N2CCCC2)nc1	3	1
O=C(Cc1ccccc1)N1CCN(c2ccc(-n3cccn3)nn2)CC1	-4	-9
Cc1ccccc1C1CC(c2ccccc2Cl)=NN1C(=O)CN1CCc2ccccc2C1 (stereo not given)	0	6
COc1cccc(-n2ccnc2SCCF)c1	-1	-7
COc1cc(-c2nc3ccc(NS(=O)(=O)c4ccccc4)cn3n2)cc(OC)c1OC	8	4
COC(=O)c1c(NC(=O)CSc2nnc3ccccn23)sc(C)c1C	-9	-15
CCCOc1c(CNC2CCSC2)cccc1OC (stereo not given)	-2	0
O=C(c1cccc(OC(F)F)c1)N1CCN(Cc2ccc(-c3noc(-c4cccc(C(F)(F)F)c4)n3)cc2)CC1	1	1
CCCc1nc(N2CCN(C(=O)Nc3ccc(C)cc3C)CC2)c2c(-c3cccc(C(F)(F)F)c3)noc2n1	16	4
COc1ccccc1-c1cc2c(SCC(=O)Nc3ccccc3)nccn2n1	2	7
CCN(CC)c1cc(C)nc(Nc2ccc(NC(=O)C3CCCC3)cc2)n1	10	5
O=C(Nc1ccc(-c2ccc(NC(=O)c3ccc(=O)oc3)cc2)cc1)c1ccc(=O)oc1	-2	-3
COc1ccccc1COc1cccn2c(N(C)C(=O)CCC3CCCC3)c(C)nc12	3	-3
O=C(c1ccco1)N1N=C(C2CC2)CC1(O)C(F)(F)F (stereo not given)	-2	-2
Cc1cc2c(o1)CC(C)(C)CC2NC(=O)C(=O)Nc1cccc(C(F)(F)F)c1 (stereo not given)	-2	-5
Cc1cn2nc(N(C)CCOc3ccc(Cl)cc3)sc2n1	12	9
CCOC(=O)C1(C/C=C/c2ccccc2)CCCN(C(=O)c2cc(C(C)C)no2)C1 (stereo not given)	3	-1
Cc1ccc(-c2nc(C)c(Cc3ccccc3)c(N3CCN(S(=O)(=O)/C=C/c4ccccc4)CC3)n2)cc1	4	6
COc1ccc(C(=O)Nc2ccc(-n3nc(OC)nc3-c3ccc4c(c3)OCO4)cc2)c(OC)c1	14	11
COC(=O)c1cc(C=C2N=C(c3ccc(C)cc3)OC2=O)oc1C	2	2
CCc1cnc2c(c1N1CCC(C(N)=O)CC1)c(=O)n(C)c(=O)n2C	-1	-1
CC1([N+](=O)[O-])COC2(OC1)C(=O)Nc1ccccc12 (stereo not given)	4	2
Cc1cccc(C2=NOC(C)C(=O)N2C)c1 (stereo not given)	5	4
CCc1c(C)nc(-c2cccc(C(F)(F)F)c2)nc1N1CCN(S(=O)(=O)c2ccc(OC)cc2)CC1	-2	0
Cn1c(=O)[nH]c(=O)c2c1nc(N1CCNCC1)n2Cc1ccc(Cl)c(Cl)c1	-3	-4
COCc1c(C(=O)Nc2ccccc2C(=O)OC)nnn1-c1ccc(C)cc1	0	6
CCC(C)NC(=O)c1cc(NC(=O)Nc2cc(C(F)(F)F)cc(C(F)(F)F)c2)ccc1N1CCCCC1 (stereo not given)	-10	-13
CCc1nc(Cl)c2c3c(sc2n1)CN(CC)CC3	4	19
O=S(=O)(c1ccc2ccccc2c1)N1CCN(c2ccccn2)CC1	-1	-3
CN(C)c1ncc2c(n1)CCCC2NC(=O)CCc1cnccn1 (stereo not given)	19	9
CC1(C(=O)NS(=O)(=O)c2cccc(C#N)c2)CCN1C(=O)Cc1cccc2ccccc12 (stereo not given)	4	-2
COCC(C)NC(=S)N1CCN(CCn2c(C)ccc2C)CC1 (stereo not given)	7	2
Cc1ccc2cc(CCNC(=O)C3CCCCC3)c(=O)[nH]c2c1C	1	-2
COc1ccccc1CC(=O)NC1CCSc2ccccc21 (stereo not given)	3	-1
O=c1cc(CN2CCOCC2)c2cc(O)c(-c3ccccc3)cc2o1	0	1
CCCCCCc1ccc(C(=O)N(CCOC)CC(=O)N2CC(=O)N(c3cccc(C)c3)C2)cc1	7	17
O=C1c2ccccc2C(=O)N1CNc1ccc(C23CC4CC(CC(C4)C2)C3)cc1	-6	-14
O=C(CC1CCS(=O)(=O)C1)N1CCC(CO)(Cc2ccccc2)CC1 (stereo not given)	-4	-8
CCN(C(=O)C(C)OC(=O)c1ccccc1SCC1(C)NC(=O)NC1=O)C1CCCCC1 (stereo not given)	-3	-2
COCCNC(=O)c1coc(CN(CCc2c[nH]c3ccccc23)Cc2ccc(C(F)(F)F)cc2)n1	5	24
COc1cccc(-c2nc(OC)nn2-c2ccc(NC(=O)c3ccccc3F)cc2)c1	17	23

Among those listed so far, these contain an aryl methoxy group:
SMILES	NPYLR7 ag	NPYLR7 ag max-min
CCn1c(=NC(=O)CCS(=O)(=O)c2ccccc2)sc2cccc(OC)c21	11	6
COc1ccc(C(=O)NCCCNC(=O)[C@H]2CCCN2C(=O)c2cc(OC)c(OC)c(OC)c2)cc1	23	27
CCOc1ccc(Nc2oc(-c3ccc(OC)cc3)nc2C#N)cc1	1	7
COc1cccc(-c2cc(C(=O)N3CCN(Cc4ccccc4)CC3)n3nc(-c4ccccc4)cc3n2)c1	-7	2
COc1cc(C=C2SC(=S)N(CC(=O)O)C2=O)cc(OC)c1OC(C)=O	-14	-14
CCCCn1cc(S(=O)(=O)c2ccc(OC)cc2)c(=O)c2cc(F)c(N3CCCCC3)cc21	-8	-9
COc1cccc(-n2ccnc2SCCF)c1	-1	-7
COc1cc(-c2nc3ccc(NS(=O)(=O)c4ccccc4)cn3n2)cc(OC)c1OC	8	4
CCCOc1c(CNC2CCSC2)cccc1OC (stereo not given)	-2	0
COc1ccccc1-c1cc2c(SCC(=O)Nc3ccccc3)nccn2n1	2	7
COc1ccccc1COc1cccn2c(N(C)C(=O)CCC3CCCC3)c(C)nc12	3	-3
COc1ccc(C(=O)Nc2ccc(-n3nc(OC)nc3-c3ccc4c(c3)OCO4)cc2)c(OC)c1	14	11
CCc1c(C)nc(-c2cccc(C(F)(F)F)c2)nc1N1CCN(S(=O)(=O)c2ccc(OC)cc2)CC1	-2	0
COc1ccccc1CC(=O)NC1CCSc2ccccc21 (stereo not given)	3	-1
COc1cccc(-c2nc(OC)nn2-c2ccc(NC(=O)c3ccccc3F)cc2)c1	17	23
